Screening data (PubChem BioAssay)
PvdQ acylase: blocks Pseudomonas aeruginosa PvdQ acylase activity; purified PvdQ acylase, fluorescence plate reader; inhibition, % at 10 µM; hit rate 0.063% among 340,000; AID 488965; in the data active = inhibition above about 30%, passing the limit was not always enough;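 also: 0% = vehicle neutral wells and 100% = reference inhibitor wells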
DAGLB inhibitor: diacylglycerol lipase beta (human) inhibition; HEK293T DAGLB membrane lysate, EnzChek fluorogenic substrate; inhibition, % at 5.17 µM; hit rate 0.059% among 340,000; in the data active = inhibition above about 34%;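 also: 0% = enzyme with vehicle and 100% = wells lacking enzyme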
PfHsp90 set2: growth inhibition of yeast expressing Plasmodium Hsp90 | S. cerevisiae expressing PfHsp90, BacTiter-Glo ATP, 48 h; yeast lacking PDR1 and PDR3 efflux regulators | inhibition, % at 9.4 µM | hit rate 0.32% among 310,000;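 active = every replicate shows inhibition above about 80%, whatever the replicate mean, limit read from the data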;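 also: 0% = DMSO neutral controls and 100% = 20 µM radicicol positive controls; yeast relying on Plasmodium falciparum Hsp90 in place of its own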
Wnt act: activators of Wnt/beta-catenin signaling | AID 743398 | hit rate 1.2% among 300,000 | activation, % at 9.35 µM | Wnt/beta-catenin reporter cell assay, activator, plate reader; in the data active = activation above about 30%, passing the limit was not always enough;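 also: 0% = neutral control wells and 100% = positive control wells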
CAL PDZ FP: blocks peptide binding to human CAL PDZ domain; inhibition, % at 20 µM; Q9HD26; purified CAL PDZ, TMR-peptide fluorescence polarization, 1 h; hit rate 0.02% among 330,000;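 active = highest replicate inhibition of at least 40%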;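 also: plate controls were DMSO neutral control wells for no effect and unlabeled competitor peptide control wells for full effect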
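Material: tagged CAL PDZ domain; buffer or medium: 25 mM sodium phosphate pH 7.4, 150 mM NaCl, TCEP, IgG, Thesit; compound dosing: single point, 20 µM; schedule: 1 h incubation at room temperature before polarization reading; measured by: FP readout, S and P plane fluorescence; read-out basis: percent inhibition from loss of millipolarization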
* hit, by the source's call; & = joins results of further samples. Some of the compounds tested, so the mix of outcomes need not match the whole.

SMILES | PvdQ acylase | DAGLB inhibitor | PfHsp90 set2 | Wnt act | CAL PDZ FP
CNCC[C@@H](Oc1ccc(C(F)(F)F)cc1)c1ccccc1 | -11.7 | 3.0 | -6.2 | -2.2 | -0.7
CCn1cc(C(=O)O)c(=O)c2cc(F)c(N3CCN(C)CC3)cc21 | -3.5 | -2.6 | -9.0 | 1.2 | 0.6
Cc1cnc(C(=O)NCCc2ccc(S(=O)(=O)NC(=O)NC3CCCCC3)cc2)cn1 | 8.3 | 0.4 | -0.7 | -5.9 | 0.8
O=C1OCCN1/N=C/c1ccc([N+](=O)[O-])o1 | -9.0 | 0.6 | -3.2 | -2.7 | -0.1
Cc1nnc(Sc2cc(NCCCO)c([N+](=O)[O-])c3nonc23)s1 | -4.3 | 2.2 | -5.2 | -6.3 | 5.3
CCN1CCN(C(c2cccnc2)c2cc(Cl)c3cccnc3c2O)CC1 (configuration not stated) | 3.9 | 7.4 | 6.1 | 61.4* | -0.9
CCN(CC)CC#CCOC(=O)C(O)(c1ccccc1)C1CCCCC1 (configuration not stated) | 2.1 | -3.4 | -7.1 | -4.6 | -1.0
CC(C)[N+]1(C)[C@@H]2CC[C@H]1CC(OC(=O)C(CO)c1ccccc1)C2 (some centres not stated) | 1.7&-6.6&-5.1 | -2.1&-1.2&-0.7 | 19.0&-1.9&9.8 | -1.6&3.1&0.5 | -0.6&0.6&-0.4
CCCNCC(O)COc1ccccc1C(=O)CCc1ccccc1 (configuration not stated) | -2.7 | -0.1 | 9.1 | -2.0 | -1.2
CNCCC(Oc1ccc(C(F)(F)F)cc1)c1ccccc1 (configuration not stated) | -10.1 | 0.0 | 0.3 | -2.8 | -1.4

Some values from the entries so far:
CNCCC(Oc1ccc(C(F)(F)F)cc1)c1ccccc1 (configuration not stated) in CAL PDZ FP = -1.4
Cc1nnc(Sc2cc(NCCCO)c([N+](=O)[O-])c3nonc23)s1 in DAGLB inhibitor = 2.2

Given as tab-separated lines: entries from further up.
canonical_smiles	PvdQ acylase	DAGLB inhibitor	PfHsp90 set2	Wnt act	CAL PDZ FP
CCCNCC(O)COc1ccccc1C(=O)CCc1ccccc1 (configuration not stated)	-2.7	-0.1	9.1	-2.0	-1.2
CCN1CCN(C(c2cccnc2)c2cc(Cl)c3cccnc3c2O)CC1 (configuration not stated)	3.9	7.4	6.1	61.4*	-0.9

Ordered by the number under DAGLB inhibitor (rising): some entries from above
SMILES	PvdQ acylase	DAGLB inhibitor	Wnt act	CAL PDZ FP
CCN(CC)CC#CCOC(=O)C(O)(c1ccccc1)C1CCCCC1 (configuration not stated)	2.1	-3.4	-4.6	-1.0
CNCCC(Oc1ccc(C(F)(F)F)cc1)c1ccccc1 (configuration not stated)	-10.1	0.0	-2.8	-1.4
O=C1OCCN1/N=C/c1ccc([N+](=O)[O-])o1	-9.0	0.6	-2.7	-0.1
Cc1nnc(Sc2cc(NCCCO)c([N+](=O)[O-])c3nonc23)s1	-4.3	2.2	-6.3	5.3
